# Source: PubChem
# PABP polyA inh – PABP-poly(A) binding inhibition; P11940; PABP-poly(A) RNA binding, fluorescence polarization; inhibition, % at 35 µM; 290,000 tested, 1% active;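 active means 50% or more with normal probe brightness, or confirmed in later tests; inconclusive means above 50% with abnormal brightness, or retests that disagree; inactive means below 50% or failed in later tests; about a fifth of its hits are not listed in these tables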;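 further: calls also rest on retests at 20 µM and on dose response follow-up; controls were probe without protein and protein plus probe with vehicle; some compounds called inactive have numbers as strong as hits; many hits fall short of the cut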
# CSC inhib – cancer stem cell inhibition | cancer stem cell-like cells viability, luminescence | inhibition, % at 7.5 µM | 300,000 tested, 1.1% active | AID 2717;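 active means mean at 75% or more and at least half the replicates too; inconclusive means mean and replicates disagree; tested in HMLE shEcad cells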;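 further: 0% = median of negative and 100% = median of positive control wells; the first replicate is given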
# MT1-MMP act inh – inhibitors of human MT1-MMP activation | P50281 | HT1080 RFP-PRO-GFP cells, GFP/RFP ratio fluorescence, overnight; percent of plate control window, DMSO zero | GFP/RFP ratio change, % at 20 µM | 360,000 tested, 0.061% active | AID 651647;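 active means GFP/RFP ratio change of at least 30% with cell ATP level not reduced by more than half and red fluorescence within 50% of control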; further: strong numbers were not always called active
#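 Material: RFP-PRO-GFP reporter HT1080 cells. Dosing: single-point 20 µM compound, 1% DMSO. Controls: DMSO and RFP-L50D-GFP cell wells. Timing: cells overnight before dosing, compound overnight, 37 °C, 5% CO2. Measure: GFP/RFP fluorescence ratio.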
# Env fusion inh – HIV envelope-mediated fusion inhibition; HeLa-JRFL Env/CEM21 cell fusion, luciferase; inhibition, % at 12.3 µM; 360,000 tested, 1.1% active;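 active means mean replicate inhibition score of at least 50 and every replicate individually at or above 50; inconclusive means only one of the two criteria met; inactive means mean below 50 and not all replicates reaching 50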;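 further: 0% = plate neutral controls and 100% = maraviroc near 300 nM; one replicate is shown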
# eIF4H inh – inhibitors of RNA binding by human eIF4H; Q15056; eIF4H fluorescence polarization binding assay; inhibition, % at 35 µM; 290,000 tested, 0.94% active;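 active means 50% or more with normal probe brightness, or confirmed in later tests; inconclusive means above 50% with abnormal brightness, or retests that disagree; inactive means below 50% or failed in later tests; about a fifth of its hits are not listed in these tables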;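 further: calls also rest on retests at 20 µM and on dose response follow-up; 0% = protein and probe with vehicle and 100% = probe without protein; strong numbers were not always called active; many hits fall short of the cut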
# UUG fidelity – yeast start codon fidelity modulation; S. cerevisiae UUG-firefly luciferase reporter, luminescence/redox ratio; activity score, % at 18.7 µM; 350,000 tested, 0.13% active;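 active means replicate mean at a twofold rise or more, about +100% in these data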;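 further: firefly luciferase made from a UUG start codon reports start codon fidelity; reporter light over untreated wells divided by growth signal over untreated wells; some hits fall short of that in this replicate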
# Rce1 inh – yeast Ras-converting enzyme inhibition; yeast membranes, quenched prenylated peptide cleavage fluorescence; calls only; 290,000 tested, 0.27% active; Q03530;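 active means fall in fluorescence gain of 50% or more versus controls, with final raw signal at or below 3038400; inconclusive means same 50% fall but final raw signal above 3038400; inactive means fall in fluorescence gain under 50%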;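 further: plate controls were neutral control wells for no effect and wells lacking membranes for full effect; tested at 10 µM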
# Target sequence (Q03530 whole entry, looked up): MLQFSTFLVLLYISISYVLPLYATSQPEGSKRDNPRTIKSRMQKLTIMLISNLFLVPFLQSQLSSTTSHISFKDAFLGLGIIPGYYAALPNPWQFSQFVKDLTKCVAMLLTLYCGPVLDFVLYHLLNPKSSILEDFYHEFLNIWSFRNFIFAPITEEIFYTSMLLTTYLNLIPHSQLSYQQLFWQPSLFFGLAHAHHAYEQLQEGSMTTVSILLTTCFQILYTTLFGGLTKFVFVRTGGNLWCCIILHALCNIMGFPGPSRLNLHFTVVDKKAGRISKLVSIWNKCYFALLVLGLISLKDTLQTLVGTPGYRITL
# eIF4H inh retest – further read-out of eIF4H inh, marked with its call; inhibition, %; compound at 20 µM; confirmation average;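 mean of two retest wells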
# PABP polyA inh retest – recorded beside PABP polyA inh, whose call it bears; inhibition, %; compound at 20 µM; confirmation repeats;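 mean of two retest wells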
# MT1-MMP act inh RFP – recorded beside MT1-MMP act inh, whose call it bears; RFP signal change, %; measured here: RFP expression control read;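 0 = vehicle wells; hits needed this value within 50% of zero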
# An asterisk follows results filed as active; i = inactive; ? = inconclusive; . = no result given; + = active, no number; & = joins results of further samples; [ ] = another dose, or the depositor's remark. Not a hit list; any-hit rate near 2.9%.
SMILES,PABP polyA inh,CSC inhib,MT1-MMP act inh,MT1-MMP act inh RFP,Env fusion inh,eIF4H inh,UUG fidelity,Rce1 inh,others
COc1ccc(CC(=O)OCC(=O)Nc2ccc(Br)cc2)cc1,6,1,2,2,3,-2,.,+,
CCOC(=O)Cc1csc(N/C(=N/S(=O)(=O)c2ccc(Cl)cc2)c2ccccc2)n1,-8,10,-3,-2,-22,-1,.,i,
COc1ccccc1N(CC(=O)NCc1ccccc1)C(=O)CCC(=O)Nc1ccccn1,-2,-15,3,-6,-18,-5,-15,i,
O=C(c1ccc2c(c1)OCO2)C1CCCN(Cc2cn[nH]c2-c2ccccc2)C1 (stereo not given),-10,-8,-1,3,12,-5,.,i,
CCCCNC(=O)COCc1cc(-c2ccc3c(c2)OCO3)on1,-2,-2,0,-1,19,-14,-14,i,
CCN(CCn1cccn1)Cc1nc(Cc2cccc(F)c2)no1,-2,-19,-1,2,-12,0,-25,i,
COC(=O)c1ccc(C(=O)N2CCCC(N3CCN(c4ccc(F)cc4)CC3)C2)nc1 (stereo not given),-5,-6,0,-1,-92,-8,-17,i,
Cc1ccc(CO/N=C\Cc2snc(Sc3ncc(C(F)(F)F)cc3Cl)c2C#N)cc1,9,.,-15,3,.,6,-17,i,
O=c1[nH]n(-c2cccc3cccnc23)c(=O)c2ccccc12,-5,8,4,4,-13,-2,-4,.,
Cc1ccccc1-c1cc(C(=O)NCc2ccc3c(c2)OCO3)nn1CC1CC(c2cccc([N+](=O)[O-])c2)=NO1 (stereo not given),.,.,7,1,3,.,-3,.,
Cc1oc2ccc(O)cc2c1C(=O)c1ccc(F)cc1,.,9,2,-4,-15,.,-20,i,
CCCn1c(N)c(N(CCOC)C(=O)/C=C/c2ccc(C(=O)OC)cc2)c(=O)[nH]c1=O,-7,-6,-1,2,-12,3,.,i,
Cc1ccccc1C(=O)Nc1ccccc1C(=O)NC1CC1,2,8,2,2,-15,2,-15,i,
COC(=O)CNC(c1ccccc1Cl)c1cc(Br)ccc1NC(=O)CCN1CCOCC1 (stereo not given),3,10,-1,-2,.,-6,-12,i,
Cc1cc(N2CC(C(=O)Nc3nccs3)CC2=O)ccc1C(C)C (stereo not given),11,-9,3,-1,22,-5,-13,i,
Cc1cc(C)c2cc(CN(CC3CCCO3)C(=S)NCc3ccco3)c(=O)[nH]c2c1 (stereo not given),9,4,-6,-5,-13,-10,.,i,
CC(C)C(O)(C(=O)NNc1ccccc1)C(C)C,5,0,0,2,-5,-9,-21,i,
O=C1C2C(C(=O)N1/N=C/c1cc([N+](=O)[O-])ccc1O)C1C=CC2C12CC2 (stereo not given),0,1,7,-2,.,-15,.,i,
Cc1ccc(CNc2nc(N)c([N+](=O)[O-])c(NCCO)n2)cc1,5,-9,-4,-7,43,-6,-3,i,
CCCOc1ccc(C2CC(=O)Nc3cc(OC)c(OC)cc32)cc1 (stereo not given),-3,-7,7,-10,-5,-2,-13,i,
O=C(COC(=O)Cc1c(Cl)cccc1Cl)NC1CCCC1,.,9,-8,4,1,.,9,.,
COc1ccc(NC(=O)CN2C(=O)CSC2=O)cc1,-4,.,7,4,6,-3,.,i,
COc1ccccc1NC(=O)c1ccc2snnc2c1,-10,-3,-4,1,-14,-2,.,i,
CCN(CC)C(=O)CSc1nnc(-c2ccc(S(=O)(=O)NCc3ccccc3Cl)cc2)o1,1,-11,.,.,19,13,.,.,
CC1=NOC(=O)/C1=C/c1ccc(N(C)C)cc1,?,-17,.,.,.,?,.,i,
CC(C)CC(CO)N1CCN(C(=O)c2ccc(Cl)cc2Cl)CCC1=O (stereo not given),-9,-10,-2,0,12,4,-3,i,
Cc1cccc(-c2noc(CCC(=O)Nc3ccccc3)n2)c1,10,11,9,-3,.,-6,-7,i,
COc1ccc(/C=C2\N=C(c3ccc(C)cc3)OC2=O)cc1,6,-4,-2,1,12,-11,3,i,
CC(C)NC(=O)N(C)C[C@H]1Oc2cc(C#Cc3ccc(F)cc3)ccc2S(=O)(=O)N([C@H](C)CO)C[C@H]1C,.,.,-2,-5,23&28[16.7 µM],.,9&10&-1,.,
Cc1cccc(N(CC(=O)N/N=C/c2ccc(OCC(=O)NCc3ccco3)cc2)S(C)(=O)=O)c1C,-5,4,-2,0,.,-2,7,i,
O=C(c1cccc(S(=O)(=O)N2CCCCCC2)c1)N1CCN(c2ccccc2)CC1,-7,-5,1,-2,-1,-1,-3,i,
COc1ncccc1-c1ccc2nncn2c1,.,.,0,6,3,.,-16,.,
Clc1ccc(OCc2nc(-c3ccncc3)no2)c(Cl)c1,-12,7,3,-3,-364,-4,-33,i,
C/C=C/C=C/[C@H]1Cc2cc(O)cc(O)c2O1,?,0,.,.,.,?,.,i,
Cc1nc(-c2cnn(-c3ccccc3)c2)c2cc(C)oc2n1,16,-9,.,.,.,3,.,i,
COC(=O)c1sccc1S(=O)(=O)N1CCCC(N(C)CCc2ccccn2)C1 (stereo not given),2,11,-1,1,-7,7,-3,i,
O=P(O)(O)c1ccccc1OCCOCCOc1ccccc1P(=O)(O)O,17,-11,3,1,.,11,-8,.,
O=C(Nc1ccc2c(c1)OCCO2)C(c1cc2ccccc2o1)N1CCN(c2ccc(F)cc2)CC1 (stereo not given),.,.,2,1,-46,.,-19,.,
O=C(CN1C(=O)c2ccccc2C1=O)Nc1ccc(S(=O)(=O)NCC2CCCO2)cc1 (stereo not given),-7,-14,-2,-2,.,-2,-2,i,
Clc1ccc(-c2noc(CCCOc3ccccc3)n2)cc1,1,.,1,0,.,-9,-11,i,
CC(NS(=O)(=O)c1ccc(F)cc1)C(=O)NCc1ccncc1 (stereo not given),0,.,0,4,.,-1,-1,i,
C=CCNC(=O)CC(=O)N/N=C/c1ccc(F)cc1,7,-4,-2,1,.,-9,.,i,
COc1ccc(C(=O)Nc2nc3ccc4nc(C)sc4c3s2)cc1,0,-8,2,2,-13,-17,-9,i,
Cc1ccc(CN2CCN(c3ccccc3Cl)CC2)o1,.,-8,0,0,1,.,-19,i,
Cc1cc(NS(=O)(=O)c2ccc(NC(=O)CCCOc3ccccc3)cc2)no1,2,.,-2,4,21,-4,-11,i,
CCOc1cc(/C=C2\SC(=O)N=C2N)ccc1O,-10,15,-21,-3,48,-10,-12,i,
CN1C(=S)SC2CS(=O)(=O)CC21C (stereo not given),-7,-1,3,3,-4,-9,-24,i,
NC(=O)C1CCN(C(=O)c2ccc(NS(=O)(=O)c3ccc(Br)s3)cc2)CC1,.,.,1,2,-1,.,-12,.,
CCOC(=O)c1ccc(NC(=O)N2CCN(S(C)(=O)=O)CC2)cc1,-3,8,1,4,14,-6,-9,i,
CCOC(=O)c1c2c3c(cccc3n(C)c1=O)C(=O)c1ccccc1-2,-16,-5,-13,7,-240,-9,-9,i,

# Filtered by structure: the entries above containing an NH in an aromatic ring (four)
SMILES,PABP polyA inh,CSC inhib,MT1-MMP act inh,MT1-MMP act inh RFP,Env fusion inh,eIF4H inh,UUG fidelity,Rce1 inh,others
O=C(c1ccc2c(c1)OCO2)C1CCCN(Cc2cn[nH]c2-c2ccccc2)C1 (stereo not given),-10,-8,-1,3,12,-5,.,i,
O=c1[nH]n(-c2cccc3cccnc23)c(=O)c2ccccc12,-5,8,4,4,-13,-2,-4,.,
CCCn1c(N)c(N(CCOC)C(=O)/C=C/c2ccc(C(=O)OC)cc2)c(=O)[nH]c1=O,-7,-6,-1,2,-12,3,.,i,
Cc1cc(C)c2cc(CN(CC3CCCO3)C(=S)NCc3ccco3)c(=O)[nH]c2c1 (stereo not given),9,4,-6,-5,-13,-10,.,i,

# The list goes on:
SMILES,PABP polyA inh,CSC inhib,MT1-MMP act inh,MT1-MMP act inh RFP,Env fusion inh,eIF4H inh,UUG fidelity,Rce1 inh,others
Cc1nc2c(C)cccn2c1/C(O)=C1\C(=O)C(=O)N(CCN(C)C)C1c1ccncc1 (stereo not given),11,-8,0,6,.,0,-20,i,
COc1ccccc1CC(=O)NCCc1ccccc1,6,-11,-2,2,2,0,-10,i,
CC(C)(C)C(=O)Nc1nc(-c2ccccc2)ns1,1,-7,0,-17,-182,-6,-6,i,
CC(=O)CCN1C(=O)NC2(CCCc3ccccc32)C1=O (stereo not given),7,7,-3,0,-7,0,-1,i,
COc1ccccc1NC(=O)NCc1ccccc1F,-1,-8,1,6,-2,-8,.,i,
COCCNC(=O)COc1ccc(C)c(C)c1,0,21,-1,8,.,4,-12,i,
CC(=O)c1cccc(N(CC(=O)NC2CCCC2)C(=O)CNC(=O)c2cccs2)c1,12,-8,3,6,4,-4,-8,i,
CCCSc1nnc2n(N)c(=O)c3ccccc3n12,-1,-7,8,2,-15,-5,-18,i,
COc1ccc(C2c3ccc(O)cc3Oc3ncn(CCCO)c(=N)c32)cc1 (stereo not given),10,-6,-5,3,-29,7,-9,i,
CN1CCC(N(C)S(=O)(=O)c2ccc(NC(=O)COc3ccc(F)cc3Cl)cc2)CC1,78*,.,-5,-1,-9,3,-8,i,eIF4H inh retest=-2;PABP polyA inh retest=91*
O=C(O)CNC(=S)N(Cc1ccccc1)Cc1cccs1,-14,6,0,5,-2,-6,.,i,
COc1ccccc1-n1cnnc1SCC(=O)Nc1cc(C)on1,-8,16,-3,-2,-6,12,.,i,
COc1ccc(C2NCCc3c2[nH]c2ccccc32)cc1CSc1nc2ccccc2s1 (stereo not given),6,116*,-8,-1,-103,-1,.,i,
CSc1ccc(Cn2c(C)c(C(=O)NCc3cccc(C)c3)sc2=O)cc1,.,.,6,-4,0,.,-17,.,
CCCOc1ccccc1NC(=O)/C=C/c1ccc(OC)c(S(=O)(=O)N2CCOCC2)c1,.,.,2,1,-36,.,-2,.,
CC(C)(C)n1nc2c(c1NC(=O)c1ccc(S(=O)(=O)N3CCCCC3)cc1)CS(=O)C2 (stereo not given),-4,.,-1,-6,3,-3,6,.,
O=C(c1[nH]c(C(F)(F)F)nc1-c1ccccc1)N1CCN(C(=O)C2CCCO2)CC1 (stereo not given),.,.,1,2,-98,.,-7,.,
CCCCCNC(=O)c1c[nH]c2ccc(S(=O)(=O)N3CCC4(CC3)OCCO4)cc2c1=O,-1,.,-1,-4,33,0,.,i,
CC1CN(C(=O)CN2C(=O)NC3(CCCCCC3)C2=O)CC(C)O1 (stereo not given),-2,-3,1,-2,-63,-8,4,i,
CC(C)COc1ccc(C(=O)NC(=S)Nc2ccc(CN3CCOCC3)cc2)cc1,-5,.,4,2,11,1,.,i,
O=c1cc(CO)oc(C(Nc2ccccn2)c2ccccc2Cl)c1O (stereo not given),-8,-1,-9,-1,-10,4,.,i,
CCOc1ccc(C2C(C#N)=C(N)Oc3nc[nH]c(=O)c32)cc1 (stereo not given),-3,-5,-7,-9,-29,2,.,i,
Cc1ccc(S(=O)(=O)N2CCN(C(=O)COC(=O)CCOc3cc(C)ccc3C)CC2)c(C)c1,.,.,-3,2,-7,.,0,.,
CC(C)CC(=O)Nc1ccc(C(=O)Cn2nc(C(=O)O)c3ccccc3c2=O)cc1,0,4,-6,4,.,16,-1,i,
Cc1cc(C(=O)N/N=C\c2cc(C(C)(C)C)ccc2O)n[nH]1,-6,-8,-1,-9,.,26,-14,i,
Cn1cnnc1SCC(=O)NCCc1ccccc1,-3,20,1,-3,-22,-10,8,i,
CC(C)(C)n1ncc2c(=O)n(CC(=O)Nc3ccc4c(c3)OCO4)cnc21,-2,3,-2,0,.,-4,5,i,
O=C1NC(=O)C2(CCCc3c([N+](=O)[O-])cccc32)N1 (stereo not given),.,.,0,1,-15,.,-13,.,
